# Screening results (PubChem)
# RN4220 kill = kills Staphylococcus aureus RN4220; inhibition, % (no concentration beside the values); S. aureus RN4220 growth, OD600, 16 h; 330,000 tested, 0.33% active;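 active means z-score of -3 or lower and OD600 up to 0.18 on both plates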;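 further: plate controls were untreated cells for no effect and reference antibiotic for full effect; stock transfer was 100 nL into about 80 µL; one replicate is shown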
# Sa ugtP lethal = compounds lethal to S. aureus RN4220 ugtP deletion mutant | OD600 growth, 16 h; some inactives read as strong as hits | 330,000 tested, 0.54% active | growth inhibition, % (test concentration not listed) | AID 1259309;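 active means z-score under -3 and OD600 up to 0.15 on both plates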;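 further: plate controls were untreated wells for no effect and antibiotic for full effect; wells of about 80 µL received 100 nL stock; the first replicate is given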
# BJeLR lethal = BJeLR cell viability loss; BJeLR (HRASV12) viability, CellTiter-Glo ATP luminescence, 48 h; reference of the scale not given here; inhibition, % (test concentration not listed); 300,000 tested, 0.17% active; AID 1554;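 active means replicate mean above 50%; inconclusive means above 50% but judged a plate artefact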;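 further: 50 nL library stock added to about 25 µL; numbers are from one replicate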
# PrP UTR inh = inhibition of PrP 5' UTR reporter expression; cell-based PrP 5' UTR mRNA reporter, plate reader; 340,000 tested, 0.35% active; inhibition, % (concentration not given with the values);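 active means every replicate at 50% or more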;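 further: 0 = median of the neutral control wells; tested in H4 reporter cells; numbers are from one replicate; inactives centre near -14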
# Mtb hypoxia inh = inhibitors of hypoxia-regulated fluorescent reporter in Mycobacterium tuberculosis | M. tuberculosis hypoxia-regulated fluorescent reporter, fluorescence | fluorescence inhibition, % (test concentration not listed) | 300,000 tested, 0.1% active | AID 1159583;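 active means 35 to 45% if threefold the growth effect, above 45% if 1.5-fold the growth effect; inactive means the rest, general growth blockers included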;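 further: wells of about 50 µL received 100 nL stock; 0% = vehicle wells and 100% = reference inhibitor wells; whole bacteria with a GFP reporter of the hypoxia response; strong numbers were not always called active; many hits fall short of the cut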
# Bead autofluor = counter-screen for toxin protease inhibitors: compound fluorescence. 360,000 tested, 3.1% active. compound autofluorescence counterscreen, microsphere flow cytometry; hits give high values. fluorescence intensity (concentration not given with the values);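 active means at least 3 SD above the mean of all compounds, about 16000 in these data; inconclusive means too few beads counted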;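 further: 100 nL of 1 mM stock went into each well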
# Mtb hypoxia inh growth = recorded beside Mtb hypoxia inh, whose call it bears; growth inhibition, %; measured here: M. tuberculosis growth (absorbance);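 0% = vehicle and 100% = reference antibiotic; read after six days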
# Numbers without * were called inactive; ? = inconclusive; . = no result given.
nr	Molecule	RN4220 kill	Sa ugtP lethal	BJeLR lethal	PrP UTR inh	Mtb hypoxia inh	Mtb hypoxia inh growth	Bead autofluor
1	CCN(CC)C(=O)COc1ccc(/C=N/NC(=O)c2cc(-c3ccccc3OC)nc3ccccc23)cc1OC	.	.	7	-34	.	.	4632
2	COc1ccc(/C(C)=N/NC(=O)CNC(=O)c2ccco2)c(OC)c1	.	.	-2	-9	.	.	5441
3	CCNc1nc(NCC)nc(N(C)n2cnnc2)n1	4.5	3	1	-15	-7	1	6104
4	NC(=O)Cn1cc(C(=O)c2ccccc2F)c2ccccc21	1.8	-3	-7	-18	-7	7	4314
5	Cc1cc(C)c(S(=O)(=O)NCC(=O)O)cc1C	3.9	4	0	-5	6	4	14746
6	Clc1ccc(-c2nc(-c3ccccn3)no2)cc1Cl	13	3	25	-19	8	4	11495
7	Cc1nn(C)c(C)c1/C=N/NC(=O)C(C)(C)Oc1ccc(Cl)cc1	.	.	3	5	.	.	24501*
8	CCOC(=O)c1[nH]c2ccc(OC)cc2c1NC(=O)c1ccccc1C(=O)O	0.5	17	-1	-36	3	9	4491
9	CC(=O)NC(Cc1ccccc1)C(=O)NC1CCN(C(=O)c2cnccn2)CC1 (configuration not stated)	1.3	2	-11	-17	3	9	16732*
10	Cn1c2ccccc2c(=O)c2c(=O)n(-c3ccccc3)c(-c3ccc(C(C)(C)C)cc3)nc21	-2.2	-13	-3	-17	5	18	4082
11	CC(C)(CO)NCc1cc(Br)ccc1OCc1ccccc1	-3.8	-17	0	-12	0	5	10285
12	Fc1cccc(Nc2cc(-n3cccn3)ncn2)c1	2.9	-9	-10	.	14	10	9280
13	CC(=O)NC1=NN(C(C)=O)C(C)(c2ccc(C)cc2)S1 (configuration not stated)	.	.	-3	-3	.	.	9029
14	COc1cc([N+](=O)[O-])cc(C=NNC(=O)c2cncc(Br)c2)c1O	3.9	-3	.	.	9	14	.
15	CCOc1cc(/C=N/O)cc(Cl)c1OC	.	.	2	-20	.	.	2462
16	C=CCN1C(=O)/C(=C/c2ccc(OC(C)=O)c(OCC)c2[N+](=O)[O-])SC1=S	99*	100*	26	-20	-7	-4	2612
17	CC1CCCC(C)N1/N=C/c1ccccc1OC(F)F (configuration not stated)	.	.	8	-32	.	.	4615
18	Cc1ccc(NC(=O)c2cccc3c2C(=O)N(C2CCCCC2)C3)c(C)c1	3.5	-8	-9	-14	6	-2	4302
19	C=CCn1c(SCC(=O)Nc2nnc(CC)s2)nnc1-c1ccco1	2.4	3	-16	-26	.	.	2731
20	Cc1cccc(NC(=O)CCNS(=O)(=O)c2cccc3nsnc23)c1C	4.0	7	-14	-9	-9	-5	6258
21	CCOc1cc(CN2CCN(c3ccc(C(C)=O)cc3)CC2)ccc1OC	5.3	13	-5	23	8	6	7952
22	CCOc1ccc(OCC)c(S(=O)(=O)N2CCC(C)CC2)c1	4.1	14	-1	.	6	7	7353
23	CC(/C=C/c1ccco1)=NNC(=O)OC(C)(C)C	0.4	-2	.	.	0	12	.
24	COCCNC(=O)CCCN1C(=O)c2ccccc2Sc2ncccc21	-1.2	-2	-1	-14	-4	-1	3563
25	COc1ccc(Nc2cc(C)nc3ccccc23)cc1	4.0	5	.	-15	9	2	8227

nr	Molecule	RN4220 kill	Sa ugtP lethal	BJeLR lethal	PrP UTR inh	Mtb hypoxia inh	Mtb hypoxia inh growth	Bead autofluor
26	COc1ccc(CN2CCN(Cc3ccon3)CC2CCO)c(C)c1C (configuration not stated)	8.5	4	-2	-18	13	6	3449
27	C=C(C)C1CC=C(C)/C(=N\NC(=O)CCc2ccccc2)C1 (configuration not stated)	.	.	0	-17	.	.	2389
28	COC(C[C@@H](O)C[C@@H](O)[C@H](C)OCc1ccccc1)OC	.	.	-1	-44	.	.	4255
29	Cc1ccccc1Nc1nnc(SCC(=O)N(C)C2CCS(=O)(=O)C2)s1 (configuration not stated)	-0.7	4	-1	-23	-1	5	2458
30	COC(=O)CSc1nc(N2CCOCC2)c2c(c1C#N)CCCC2	5.8	6	-6	-16	4	-8	4860
31	COc1ccc(Nc2nc3ccccc3n3cnnc23)cc1Cl	5.4	5	-6	-36	4	7	3433
32	O=C(Nc1ccccc1)O/N=C/c1ccncc1	.	.	10	-27	.	.	2433
33	O=C(NC(=S)Nc1nc(-c2ccccc2)cs1)c1cncc(Br)c1	39	33	6	-43	25	11	12895
34	O=C(CNC(=O)c1ccc(Br)o1)NCc1ccc(Cl)cc1	-0.9	8	3	-2	4	2	4726
35	CCOc1ccccc1OCC(=O)Nc1ccc(S(=O)(=O)N(C)C)cc1	5.2	-8	9	-10	16	9	3048
36	CCc1cccc2c(C(=O)C(NCCOC)c3ccccc3)c[nH]c12 (configuration not stated)	0.5	-6	-4	-18	14	1	4012
37	CN(C(=O)CSc1nnnn1-c1ccc(O)cc1)C1CCCCC1	3.2	-4	.	-9	3	1	5776
38	FC(F)(F)c1ccccc1C1=CC(c2ccccc2)n2ncnc2N1 (configuration not stated)	3.9	-3	-6	-13	9	6	4129
39	CCOC(=O)Nc1ccc2c(c1)N(C(=O)N(CC)CC)c1ccccc1CC2	9.1	-1	1	-27	-3	-7	2457
40	COc1ccc2oc(C(=O)c3ccccc3)c(NC(=O)CN3CCN(C)CC3)c2c1	.	.	3	3	.	.	3012
41	C(=Nn1cnnc1)c1cn(-c2cccs2)nc1-c1ccccc1	3.5	-18	.	.	10	-11	.
42	COc1ccc2c(c1)-c1nc(N=Cc3c(O)ccc4ccccc34)sc1CC2	1.4	2	.	.	1	7	.
43	CC(=O)OCC(=O)C1(O)CCC2C3CC(C)C4=CC(=O)C=CC4(C)C3(F)C(O)CC21C (configuration not stated)	5.5	4	.	-8	21	6	3931
44	O=C(NNC(=O)C1CC=CCC1)c1ccccc1Br (configuration not stated)	4.1	8	2	-24	6	-3	4092
45	CC(C)c1ccc(NC(=O)CCNS(=O)(=O)c2cccc3nsnc23)cc1	3.3	4	8	-31	7	4	7968
46	O=C(CN(C(=O)CCC(=O)Nc1ccccn1)c1cccc(F)c1)NCc1ccc(F)cc1	2.7	7	-2	-8	3	5	5447
47	O=C(NCCCN1CCCC1=O)c1cccc(S(=O)(=O)N2CCN(c3ccc(F)cc3)CC2)c1	2.8	1	10	-17	11	-1	6284
48	CCc1ccc(N2C(=O)c3cc(N4CCOCC4)c([N+](=O)[O-])cc3C2=O)cc1	-0.2	2	1	.	-1	2	.
49	CCOc1ccc2ccccc2c1C(=O)Nc1cc(=O)n(C)c(=O)n1C	-0.3	4	6	-7	7	7	4326
50	Cc1cc(-c2nnc(SCC(=O)Nc3ccccc3C)n2N)n[nH]1	4.2	5	-10	-5	4	11	5632

nr	Molecule	RN4220 kill	Sa ugtP lethal	BJeLR lethal	PrP UTR inh	Mtb hypoxia inh	Mtb hypoxia inh growth	Bead autofluor
51	O=S1(=O)NC(C2CC2c2ccccc2)CCO1 (configuration not stated)	2.3	2	8	-22	7	9	4258
52	CN(C)C(Cc1ccc(Cl)cc1)C(=O)c1ccccc1 (configuration not stated)	2.5	8	5	-13	20	12	2778
53	CC(O)C1C(=O)OC2(C)CC(C)(C)NC(=S)N12 (configuration not stated)	4.6	9	-2	-19	2	4	4022
54	COCCCNC(=O)CSc1nc2ccc(N3CCOCC3)cc2c(=O)n1CCc1ccccc1	0.5	-8	-4	-13	-8	0	?
55	O=S1(=O)CC/C(=N\Nc2ccccc2)c2ccsc21	.	.	8	3	.	.	4667
56	Cc1cc(-c2ccc(C)c(S(=O)(=O)NCc3ccc(Br)cc3)c2)on1	-5.9	0	-13	-10	17	6	5217
57	Cc1cccc(NC(=O)Nc2ccc3c(c2)CCC3)c1	2.2	-4	-4	-71	3	11	5914
58	CCc1ccc(-c2nn(-c3ccccc3)cc2C2SCC(=O)N2Cc2ccco2)cc1 (configuration not stated)	-2.5	60	-5	-13	-1	-2	3101
59	O=C(O)Cn1c(C(F)(F)F)nc2ccccc21	4.1	7	9	-14	6	5	8019
60	CN(C)S(=O)(=O)c1cccc(NC(=O)COC(=O)c2cn(-c3ccccc3)nc2-c2ccccc2)c1	3.5	10	2	-11	-11	-14	2509
61	N#Cc1ccc(CN2CCN(c3ccc(S(=O)(=O)N4CCCC4)cn3)CC2)cc1	3.2	2	.	-8	2	-5	8271
62	C/C(=N/NS(=O)(=O)c1ccc(C)cc1)c1ccc(NC(=O)C(F)(F)F)cc1	.	.	2	7	.	.	2499
63	CCOc1ccc(N2C(=O)CC(Sc3nc(-c4cccs4)cc(C(F)(F)F)c3C#N)C2=O)cc1 (configuration not stated)	-9.4	-14	-5	-9	7	6	2956
64	CC1CCN(c2nc3ccc(C(=O)NCCCN4CCCCC4)cc3s2)CC1	-1.4	4	14	-96	6	6	5486
65	COC(=O)C1=C(c2ccccc2)C[C@@H]2CC[C@H]1N2C(=O)NCCS(C)=O (some centres not stated)	.	.	2	-13	.	.	3979
66	Cc1ccc([C@@H]2[C@@H]3C(=O)N(C)C(=O)[C@@H]3[C@]3(C)C(=O)N(Cc4ccccc4)CC(=O)N23)o1	.	.	5	3	.	.	2806
67	O=C(/C=C/c1cccc([N+](=O)[O-])c1)N1CCN(c2ccccc2F)CC1	4.7	-5	-4	-26	1	13	2381
68	CC(C(=O)Nc1ccccn1)N1C(=O)c2ccccc2S1(=O)=O (configuration not stated)	.	.	9	-11	.	.	5150
69	Cc1cc(=O)n2ccccc2c1C#N	2.8	2	11	-13	-4	4	22057*
70	CCN1CCN(c2cc(C)c3cc(NC(=O)c4ccc(OC)c(OC)c4)ccc3n2)CC1	8.0	10	9	1	-2	-3	6041
71	O=C(c1ccc(Cl)cc1)N1CCc2c([nH]c3ccccc23)C1C(F)(F)F (configuration not stated)	2.4	5	-14	-3	10	9	.
72	Cc1cc(C)cc(NC(=O)NCc2ccccn2)c1	4.2	8	1	-49	-5	-7	.
73	O=C(Nc1cccc(N2C(=O)C=CC2=O)c1)c1cccs1	.	.	1	-13	.	.	?
74	C=CCOC(=O)CSCC(NC(=O)OC(C)(C)C)C(=O)OCC (configuration not stated)	3.4	1	-1	-2	.	.	2361
75	O=C(Nc1ccccc1)c1ccccc1O	3.6	-1	9	-37	-5	1	?

# Entries 72–75, reprinted for reference:
nr	Molecule	RN4220 kill	Sa ugtP lethal	BJeLR lethal	PrP UTR inh	Mtb hypoxia inh	Mtb hypoxia inh growth	Bead autofluor
72	Cc1cc(C)cc(NC(=O)NCc2ccccn2)c1	4.2	8	1	-49	-5	-7	.
73	O=C(Nc1cccc(N2C(=O)C=CC2=O)c1)c1cccs1	.	.	1	-13	.	.	?
74	C=CCOC(=O)CSCC(NC(=O)OC(C)(C)C)C(=O)OCC (configuration not stated)	3.4	1	-1	-2	.	.	2361
75	O=C(Nc1ccccc1)c1ccccc1O	3.6	-1	9	-37	-5	1	?

# Going on with the list:
nr	Molecule	RN4220 kill	Sa ugtP lethal	BJeLR lethal	PrP UTR inh	Mtb hypoxia inh	Mtb hypoxia inh growth	Bead autofluor
76	CCOc1ccc(N2C(=O)c3ccc(C(=O)OCC(=O)N(CC)C4CCS(=O)(=O)C4)cc3C2=O)cc1 (configuration not stated)	2.5	4	4	-11	9	4	4466
77	CC(C)c1ccc(N(C(=O)c2snc(C(N)=O)c2N)C(C(=O)NC2CCCC2)c2ccncc2)cc1 (configuration not stated)	2.1	1	-2	-20	-9	2	3773
78	COc1ccccc1C=NNC(=O)CO	5.2	7	.	.	12	5	.
79	COc1cc(NS(=O)(=O)c2cn(C)cn2)cc(OC)c1OC	0.0	-1	2	-3	5	4	5628
80	CCOc1ccccc1OCCCC(=O)Nc1nc2ccccc2[nH]1	-1.3	6	0	-12	-3	9	3922
81	Cc1ccc(CNC(=O)C2CCN(C(=O)Nc3ccc(C)cc3)CC2)cc1	0.2	0	-5	-1	11	-4	4409
82	C=CCC1(CC=C)CCCN1C(=O)c1cc(COc2ccccc2SC)on1	1.1	25	6	5	6	-5	5409
83	COCCNC(=O)c1ccc(C)cc1C	4.2	3	5	-14	0	3	4556
84	Cc1cc(Cl)ccc1OCC(=O)N[C@@H](Cc1ccccc1)c1nc2ccccc2[nH]1	3.2	8	5	-3	11	2	2032
85	Brc1cc2c(cc1CN1CCN(c3ccccc3)CC1)OCCO2	.	.	2	-17	.	.	3764
86	CN1CCCN(C(=O)CNC(=O)Cc2ccccc2)CC1	4.5	4	-4	-19	-10	-5	4292
87	C[C@@]12CCC=CC1C(c1ccc(C(F)(F)F)cc1)N(Cc1ccccc1)C2=O (some centres not stated)	-0.5	2	.	.	11	11	.
